BJeLR viability: kills HRASV12-expressing BJeLR cells; BJeLR (HRASV12) viability, CellTiter-Glo ATP luminescence, 48 h; reference of the scale not given here; inhibition, % (test concentration not listed); 300,000 compounds, 0.17% hits;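 active = replicate mean above 50%; inconclusive = above 50% but judged a plate artefact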;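 also: 50 nL library stock added to about 25 µL; numbers are from one replicate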
Bead autofluor: counter-screen for toxin protease inhibitors: compound fluorescence | compound autofluorescence counterscreen, microsphere flow cytometry; hits give high values | fluorescence intensity (concentration not given with the values) | 360,000 compounds, 3.1% hits | AID 624483;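 active = at least 3 SD above the mean of all compounds, about 16000 in these data; inconclusive = too few beads counted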;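 also: 100 nL of 1 mM stock went into each well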
PrP 5UTR inh: suppresses PrP 5' UTR mRNA reporter expression; 340,000 compounds, 0.35% hits; inhibition, % (test concentration not listed); AID 488862; cell-based PrP 5' UTR mRNA reporter, plate reader;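 active = every replicate at 50% or more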;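 also: 0 = median of the neutral control wells; tested in H4 reporter cells; numbers are from one replicate; inactives centre near -14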
Mtb hypoxia inh: Mtb hypoxia fluorescent reporter inhibition | 300,000 compounds, 0.1% hits | M. tuberculosis hypoxia-regulated fluorescent reporter, fluorescence | fluorescence inhibition, % (test concentration not listed);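 active = 35 to 45% if threefold the growth effect, above 45% if 1.5-fold the growth effect; inactive = the rest, general growth blockers included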;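 also: wells of about 50 µL received 100 nL stock; 0% = vehicle wells and 100% = reference inhibitor wells; whole bacteria with a GFP reporter of the hypoxia response; strong numbers were not always called active; many hits fall short of the cut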
Sa RN4220 lethal: S. aureus RN4220 growth inhibition. OD600, 16 h. inhibition, % (concentration not given with the values). 330,000 compounds, 0.33% hits;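 active = z-score of -3 or lower and OD600 up to 0.18 on both plates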;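 also: plate controls were untreated cells for no effect and reference antibiotic for full effect; stock transfer was 100 nL into about 80 µL; one replicate is shown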
Sa ugtP lethal: kills S. aureus RN4220 lacking UgtP. S. aureus RN4220 ugtP deletion, OD600 growth, 16 h; some inactives read as strong as hits. growth inhibition, % (test concentration not listed). 330,000 compounds, 0.54% hits;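 active = z-score under -3 and OD600 up to 0.15 on both plates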;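 also: plate controls were untreated wells for no effect and antibiotic for full effect; wells of about 80 µL received 100 nL stock; the first replicate is given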
Mtb hypoxia inh growth: second read-out of Mtb hypoxia inh, no call of its own (marks repeat the call); growth inhibition, %; measured here: M. tuberculosis growth (absorbance);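 0% = vehicle and 100% = reference antibiotic; read after six days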
The depositor's hits bear a star; ? = inconclusive; . = no result given; & = joins results of further samples.

The line under a structure holds: BJeLR viability	Bead autofluor	PrP 5UTR inh	Mtb hypoxia inh	Mtb hypoxia inh growth	Sa RN4220 lethal	Sa ugtP lethal
- Clc1ccc(-c2nnc(-c3ccc(Br)o3)o2)c(Cl)c1
  4	22190*	-155	2	5	4.3	-8
- CCC(CC)NCC(O)COc1ccc(Br)cc1 (stereo not given)
  .	3117	-10	6	0	6.5	22
- COc1ccc(-n2c(SCC(=O)N3CCOCC3)nc3ccccc3c2=O)cc1
  -4	5908	-5	8	8	4.5	1
- CCOc1ccc(NC(=O)COc2ccc(S(=O)(=O)N3CCCC3)cc2)cc1
  -1	5776	-11	5	4	-1.9	7
- O=C(Cc1ccccc1)Nc1c(C(=O)N2CCOCC2)cnn1-c1ccccc1
  -4	10294	-7	-5	-1	3.5	-2
- Cc1ccc(-c2nc(CSCC(=O)N3CCCC3)c(C)o2)cc1
  3	23517*	-15	13	19	4.3	-3
- Cc1sc(NC(=O)c2ccco2)c(CN2CCCCC2)c1C
  3	9701	-7	10	9	1.9	7
- O=C(NNC(=O)c1cc(O)c(O)c(O)c1)NC1CCCCC1
  -3	2919	-11	1	-7	11	-1
- CC(=Nn1c(C)cc(C)c(C#N)c1=O)c1cccs1
  .	.	.	-2	2	3.3	2
- COc1cccc(C=NNC(=O)CN2CC(c3ccccc3)CC2=O)c1OC (stereo not given)
  .	.	.	-7	3	0.3	3
- N#Cc1c(-c2cccs2)nc(SCC(=O)c2ccc(Br)cc2)[nH]c1=O
  -3	4088	-9	1	5	1.2	22
- Cc1cc(NC(=O)CSCC(=O)OCc2nnc(-c3ccc(F)cc3)o2)no1
  .	7499	-19	12	8	4.6	4
- COc1ccccc1CN1CC(C(=O)NCc2c(F)ccc(C)c2F)CCC1=O (stereo not given)
  7	4540	-9	2	-3	-0.1	-1
- O=C(CC12CC3CC(CC(Br)(C3)C1)C2)NCc1ccccc1
  -2	3505	-20	6	8	2.7	8
- Cc1cc(S(=O)(=O)N2CCCC2)c(C)s1
  0	20695*	-16	11	3	3.4	-6
- Cc1ccc(/C=N\NC(=O)CNC(=O)C23CC4CC(CC(C4)C2)C3)o1
  -3	5899	-15	.	.	.	.
- CC(=O)c1cc(C#N)c(N2CCCC2)nc1C
  22	4563	-20	-6	8	-0.2	-4
- Cc1nc2cc(NC(=O)N3CC4(C)CC3CC(C)(C)C4)ccc2n1C (stereo not given)
  1	5562	-17	9	3	4.4	7
- Cc1ccc(N2CCN(S(=O)(=O)c3c(C)nc4scc(C)n4c3=O)CC2)c(C)c1
  -5	4406	-27	6	-3	1.3	6
- O=C(O)c1ccc(-n2ncc3c2/C(=C/c2cccc([N+](=O)[O-])c2)CC3)cc1
  2	4480	-71	-10	-1	5.9	0
- Cc1c(NC(=O)N(C)c2ccccc2)c(=O)n(-c2ccccc2)n1C
  0	3087	-13	4	6	2.6	0
- CCCCn1c(CNC(C)=O)nc2ccccc21
  5	5541	-16	2	5	23	21
- Cc1ccc(-c2cc(N)n(Cc3ccc(Cl)cc3)n2)cc1
  9	2464	-10	.	.	-7.1	15
- Cn1c(=O)c2c(SCC(=O)N3CCOCC3)nc(C3CCCCC3)nc2n(C)c1=O
  -2	.	.	4	8	-1.8	3
- CCNC(=S)N1CCn2c(nc3ccccc32)C1
  9	2001	-23	-4	6	3.0	0
- COC(=O)c1cc(C(=O)OC)n(Cc2ccc(Br)cc2)n1
  -8	21618*	-8	5	5	-2.5	0
- CN(Cc1cn(C)nc1-c1ccccc1F)CC1CCN(Cc2ccccc2)CC1
  1	6390	-6	5	-3	5.9	0
- Cc1csc(=O)n1CC(=O)Nc1ccc(Cl)cc1F
  .	.	-27	8	3	3.4	1
- CCCCn1c(N)c(N(CCOC)C(=O)COC(=O)C(C)Oc2ccc(Cl)cc2)c(=O)[nH]c1=O (stereo not given)
  0	5760	-17	4	-3	2.3	2
- COCCn1cnc2c1c(=O)n(CC(=O)c1ccc3c(c1)OCCO3)c(=O)n2Cc1ccccc1
  1	?	-10	-12	5	4.5	4
- C(=Nc1nc2ccccc2n1CCN1CCOCC1)c1cccs1
  .	.	.	17	5	-11	-3
- COc1ccc(C)cc1NC(=O)CN(c1ccccc1F)S(C)(=O)=O
  -1	3268	-7	1	7	2.2	2
- COC(=O)[C@]1(Cc2ccccc2)N[C@H](CN(C)C(=O)Nc2ccc(C)cc2)[C@@H]2C(=O)N(C)C(=O)[C@@H]21
  .	2851	-8	-1	-4	3.1	5
- COC(=O)c1ccc(N2C(=O)CC(N(C)Cc3ccccc3)C2=O)cc1 (stereo not given)
  1	2842	-12	5	4	9.3	11
- CC(=NNC(=O)CNC(=O)CCc1ccccc1)c1ccc(Cl)cc1
  .	.	.	-3	-5	0.9	-3
- O=C(COc1ccc(S(=O)(=O)Nc2ccccc2)cc1)NCc1ccncc1
  -1	4612	-25	-10	2	4.1	1
- Cc1nn(-c2cccc(Cl)c2)nc1C(=O)Nc1cccc(C(=O)NC2CC2)c1
  .	6478	.	12	9	7.2	-11
- CCN(CC)CCNC(=O)C(=NO)c1ccccn1
  .	.	.	-17	-2	1.9	-11
- Cc1ccc(S(=O)(=O)Cn2nnnc2C(C(C)C)N2CCC(C(N)=O)CC2)cc1 (stereo not given)
  1	6145	-9	4	2	2.6	14
- COc1ccc(C2=CSC3=NCCN23)cc1F
  6	2141	-1	.	.	8.8	0
- CC(=NNC(=O)COc1ccc(C)cc1[N+](=O)[O-])c1cccs1
  .	.	.	-5	4	1.2	-3
- COc1cc(C2C(C(=O)c3ccco3)=C(O)C(=O)N2c2cc(C)on2)cc(Br)c1O (stereo not given)
  9	3221	-17	.	.	3.6	2
- COC(=O)NN=Cc1cc(C)n(-c2cccc3ccccc23)c1C
  .	.	.	9	7	-0.9	-5
- C(=C\c1nc(-c2ccncc2)no1)/c1ccccc1
  12	4064	-70	16	4	6.0	10
- CCOC(=O)C(CCCP(=O)(c1ccccc1)c1ccccc1)(NC(C)=O)C(=O)OCC
  1	4141	-11	14	3	0.0	10
- CC(=NNC(=S)NC(C)C)c1ccco1
  .	.	.	5	3	8.5	4
- O=C(CC1SC(=Nc2ccccc2)N(CCCO)C1=O)Nc1ccc(Cl)cc1 (stereo not given)
  .	2322	-12	.	.	-3.7	-6
- CC1(C)CC(=O)C/C(=N/NC(=O)c2ccc(-c3ccccc3)cc2)C1
  5	2622	-8	.	.	.	.
- O=C(CN1C(=O)NC2(CCCC2)C1=O)Nc1ccc(F)c(Cl)c1
  0	3063	-3	-1	1	0.3	-4
- O=S(=O)(NCc1csc(-c2cccnc2)n1)c1ccc(Br)cc1
  3	5188	-13	6	2	1.1	2

More structures follow:
The line under a structure holds: BJeLR viability	Bead autofluor	PrP 5UTR inh	Mtb hypoxia inh	Mtb hypoxia inh growth	Sa RN4220 lethal	Sa ugtP lethal
- CCN(C(=O)COC(=O)CCOc1cc(C)ccc1C)c1c(N)n(Cc2ccccc2)c(=O)[nH]c1=O
  .	3607	-4	14	31	12	-4
- O=S(=O)(/N=C(/Nc1cc(N2CCOCC2)ncn1)c1ccc(F)cc1)c1ccccc1
  1	3982&12458	-19&-39	.	.	.	.
- O=C(NN=C1CC(c2ccccc2)Oc2ccccc21)c1ccc(O)cc1 (stereo not given)
  .	.	.	1	-7	-1.5	6
- Cc1ccc(N(C)S(=O)(=O)c2cc3c(cc2C)NC(=O)CO3)cc1
  9	6402	-5	5	7	-6.5	-9
- COc1cc(CNCCc2ccc(S(N)(=O)=O)cc2)ccc1OCC(=O)NC(C)(C)C
  6	1974	-106	6	-9	3.6	6
- Cc1ccc(-c2nnc(NC(=O)c3ccco3)s2)cc1
  -9	5580	-32	1	6	8.1	3
- O=[N+]([O-])c1ccc(N2CCCNCC2)c2ncccc12
  -15	4791	42	.	.	.	.
- Cc1cc(NC(=O)CN2C(=O)NC(C)(c3ccccc3)C2=O)no1 (stereo not given)
  -13	9697	-10	9	5	3.2	-2
- CC1CCC(NC(=O)C2c3ccccc3C(=O)N2Cc2ccc3c(c2)OCO3)CC1 (stereo not given)
  -2	3174	-13	11	9	0.9	15
- O=[N+]([O-])c1ccccc1NCc1ccc(Cl)cc1
  1	.	.	8	7	1.4	16
- CN(Cc1ccco1)S(=O)(=O)c1nnc(NC(=O)c2ccc(F)cc2)s1
  1	5335	1	-6	-4	17	8
- CCOC(=O)c1c(NC(=O)c2nn(CC)cc2Br)c(C#N)nn1-c1ccccc1
  10	9839	-18	1	2	4.7	-7
- CC(C)(C)OC(=O)N1CCN(c2ccc(CNC(=O)c3ccc(Cl)cc3)cc2)CC1
  2	4251	-12	14	7	2.0	8
- Cn1c(SCc2ccccc2Cl)nnc1-c1cnccn1
  11	15326	-29	18	18	9.7	6
- Cc1cccc(NC(=S)Nc2cccc(C)n2)n1
  2	3256	-18	2	2	4.9	3
- CN1C=CC=C/C1=C1\SC(=S)N(c2ccccc2)C1=O
  -6	3391	-12	2	-3	0.7	8
- CCOCCn1c(CCCO)nc2ccccc21
  -6	3054	-4	.	.	2.8	7
- O=C(Nc1c2c(nn1-c1ccccc1)CS(=O)C2)c1ccc2c(c1)OCO2 (stereo not given)
  2	6798	-1	8	-7	-2.1	4
- COc1ccc(N(CC(=O)Nc2ccc(C)c(C)c2)S(=O)(=O)c2c(C)noc2C)cc1
  -2	5257	-15	-1	5	4.4	-9
- COc1ccc(CNC(=O)CSc2nnc3c(n2)[nH]c2ccc(F)cc23)cc1
  3	3652	-38	11	-6	1.7	2
- CC(C)c1ccc(CN(C(=O)c2ccco2)C2CCS(=O)(=O)C2)cc1 (stereo not given)
  9	6425	-11	9	1	0.3	11
- Oc1ccccc1-c1nc(NCC2CCCO2)c2ccccc2n1 (stereo not given)
  -1	4515	-11	5	11	-19	-3
- COc1cc(N/C(=N/S(=O)(=O)c2ccccc2)c2ccccc2)ncn1
  -1	4380	-63	5	2	4.6	3
- COC(=O)c1ccc(NC(=O)C2CC(=O)N(c3cc(C)ccc3C)C2)cc1 (stereo not given)
  -1	3392	-22	8	10	0.0	-4
- CCn1c(C)cc(/C=C2\NC(=O)N(CC(=O)Nc3ccc(F)cc3)C2=O)c1C
  10	4346	-3	18	2	8.2	-71
- COc1cc(NC(=O)Cn2nnc(-c3ccccc3N)n2)cc(OC)c1
  4	11417	-15	3	1	3.6	2
- COc1ccc(S(=O)(=O)N(NC2=NS(=O)(=O)c3ccccc32)C(=O)C(C)C)cc1
  3	2513	-8	7	-2	1.6	-1
- O=C(COC(=O)c1ccncc1)Nc1cccc(Cl)c1
  5	2628	-11	.	.	-4.1	-5
- O=C(CCCNS(=O)(=O)c1cccc2nsnc12)NCc1ccccc1
  0	4762	-10	5	6	5.8	4
- CCOc1ccc(C=Nn2c(-c3ccccc3)n[nH]c2=S)cc1
  .	.	.	2	5	6.1	3
- COC(=O)c1ccc(CON=Cc2cccc([N+](=O)[O-])c2)cc1
  .	.	.	4	8	2.8	2
- NS(=O)(=O)c1ccc(CCNC(=O)CNC(=O)c2ccc(F)cc2)cc1
  4	6040	-8	15	0	-1.2	-4
- CN(CC(=O)Nc1ccccc1Cl)CC(=O)Nc1sc2c(c1C(N)=O)CCC2
  3	6107	-2	6	-4	1.0	-6
- O=C(CSc1ncc(S(=O)(=O)c2ccccc2)c(=O)[nH]1)Nc1ccccc1Cl
  -11	4609	-23	-2	3	3.8	14
- COc1ccc(NC(=O)CN(C)CCOc2ccc(Cl)cc2)cc1OC
  -5	4060	-7	-3	7	3.1	10
- Cc1[nH]c(C(=O)NN=Cc2ccc(N(C)C)cc2)c(C)c1C(=O)NN=Cc1ccc(N(C)C)cc1
  .	.	.	-6	-3	5.2	14
- Cc1c(C(=O)N(CCc2ccccc2)Cc2ccccc2)cccc1[N+](=O)[O-]
  3	4606	-3	13	2	3.8	3
- COc1ccc(OC)c(NS(=O)(=O)c2ccc(Cl)nc2)c1
  5	2541	-14	7	11	3.4	2
- O=C(c1ccc2c(c1)OCO2)N1CCNc2ccccc2C1
  -2	2045	-1	.	.	0.1	-10
- Cc1ccc(Nc2cc(Cl)nc(N)n2)c([N+](=O)[O-])c1
  .	2927	-21	17	6	8.7	-4
